# Screens from PubChem.
# VACV Venus inh = vaccinia inhibition (Venus reporter) | Vaccinia virus Venus reporter expression, fluorescence | Potency, µM (top dose mostly 36.5 µM), for inactives: top-dose activity change, negative = inhibition, hits mostly inhibitors | 330,000 compounds, 0.46% hits | AID 720580; active means well fitted inhibition curve with a large enough effect; inconclusive means small, poorly fitted or top-dose-only effect; inactive means no such curve, though single readings can be large or run the other way; tested in A549 cells; further: nearly all actives have a fitted effect of over 30% in size; inactives centre near -10
# Vaccinia mCherry = inhibitors of vaccinia virus infection (mCherry reporter signal); Potency, µM (doses to about 36.5 µM), for the others: at the top dose activity change, negative = inhibition, actives largely listed as inhibitors; Vaccinia virus mCherry reporter infection, fluorescence; about a quarter of the inactives have no number; 310,000 compounds, 0.63% hits; active = well fitted inhibition curve with a large enough effect; inconclusive = small, poorly fitted or top-dose-only effect; inactive = no such curve, though single readings can be large or run the other way; tested in A549 cells; further: nearly all actives have a fitted effect of over 35% in size; inactives centre near -10
# The depositor's hits bear a star; i = inactive; ? = inconclusive; . = no result given; & = joins results of further samples; [ ] = remark or other dose. On the % scale 0 is the no-effect control and ±100 the full control effect; potency means the concentration at half of the fitted maximal effect.
SMILES,VACV Venus inh,Vaccinia mCherry
O=C(c1ccc(OCc2cn3ccccc3n2)cc1)N1CCN(S(=O)(=O)c2ccccc2F)CC1,-23%,-23%
O=S(=O)(Nc1cc(S(=O)(=O)N2CCCC2)ccc1O)c1ccc(Cl)s1,-8%,-9%
COc1ccc(/C=C2\SC(N)=NC2=O)cc1Cl,-28%,-21%
N#CN=CN1CC=C(c2ccc(Cl)cc2)CC1,-10%,i
CC1CCC(NC(=O)C2(C)CCC(=O)N2Cc2cccnc2)CC1 (stereo unspecified),-5%,-13%
CN1CCCC(C(=O)Nc2cccc(Cl)c2)CC1 (stereo unspecified),1%,i
O=C(Nc1ccc(Cl)cc1F)C1CCN(S(=O)(=O)c2cccc3nonc23)CC1,-9%,-15%
CCC1CN(C(=O)N2CCC(C(=O)N3CCN(c4ccccc4F)CC3)CC2)c2ccccc2O1 (stereo unspecified),-8%,-2%
CC1CCCCN1C(=O)COC(=O)CNC(=O)c1sc2ccccc2c1Cl (stereo unspecified),6%,i
CC1CCCN(C(=O)CSc2nnc(-c3ccco3)n2C)C1 (stereo unspecified),-5%,3%
COCCNC(=O)C(c1ccco1)N(C(=O)Cn1nnc2ccccc21)c1ccc(C)cc1C (stereo unspecified),-12%,-17%
COc1ccc(NC(=O)C(Cc2ccccc2)NS(=O)(=O)c2ccc3c(c2)CCN3C(C)=O)cc1 (stereo unspecified),3%,-13%
COC(=O)c1ccccc1NC(=O)NC1CCC(C)CC1 (stereo unspecified),-14%,-25%
CC1(C)CCCC2=C1CC1C(=O)N(N)C(=O)C1C2 (stereo unspecified),-7%,i
Cc1cccc(N(C)C(=O)CN2C(=O)COc3ccc(S(=O)(=O)N4CCCCCC4)cc32)c1,-11%,-18%
CCN(Cc1ccccc1)S(=O)(=O)c1cc(C(=O)NCCCN(C)C)ccc1OC,-6%,i
CCCCOC(=O)c1cc2c(cn1)[nH]c1ccccc12,-19%&-13%,i
Cn1c(=O)c2[nH]c(N3CCN(c4ccccc4)CC3)nc2n(C)c1=O,-27%,?
COc1ccc(-c2c(C#Cc3ccsc3)c3cc(-c4ccc(OC)nc4)ccc3n2C)cc1,-5%,-16%
O=C(CCOc1ccccc1)Nc1ccccc1,-15%,.
CNc1cncc(-c2cccc(C(C)=O)c2)n1,-21%,12%
O=C(CN1CCN(C(=O)c2ccco2)CC1)Nc1ccc2c(c1)OCCO2,-4%,-14%
CC(Nc1ccccc1)c1ccncc1 (stereo unspecified),-8%,?
COc1ccc(NC(=O)CSc2ccc(-c3cccnc3)nn2)cc1,-12%,-7%
COc1cc(NC(=O)C2=C(C)Nc3nnnn3C2c2ccc(SC)cc2)c(OC)cc1Cl (stereo unspecified),2%,-4%
Cc1ccc(-c2nc3c4ccccc4ccn3c2Cc2ccccc2)cc1,-17%,i
CC(C)NC(=O)c1ccc(C(C)C)cc1,-7%,i
CCn1c(NCc2ccco2)nc2ccccc21,-8%,-10%
CC(C)Cc1nc2cccnc2n1C1CCNCC1,-2%,-3%
CN(CC(=O)Nc1cccc(C(F)(F)F)c1)Cc1ccccc1,-5%,-11%
CSc1ncc(F)c(N(CCO)CCO)n1,-10%,-2%
Cc1cccc(NCc2ccc(Br)cc2)n1,-6%,-4%
Cc1cc(=O)oc(C)c1C(=O)Nc1cccc2nonc12,-4%,-18%[1.46 µM]
CC(=O)c1cccc(N2C(=O)C3C4CCC(C4=C(C)C)C3C2=O)c1 (stereo unspecified),-11%,-21%
COc1ccc(C(CNS(=O)(=O)c2ccc(F)cc2)N2CCN(C)CC2)cc1 (stereo unspecified),-10%,i
COc1cccc(C2(O)CCN(C(=O)Cc3cccnc3)CC2)c1,-14%,.
Nc1nnc(C2CCCC2)s1,-9%,-12%
CCOC(=O)c1c(-c2ccc(F)cc2)csc1NC(=O)CCN1CCOCC1,-15%,-9%
N#CC1=C(N)Oc2c(c(=O)oc3ccccc23)C1c1cccnc1 (stereo unspecified),-11%,-14%
O=C(COC(=O)c1cccc(C(F)(F)F)c1)NCc1ccccc1,3%,-9%
COc1ccc(C(=O)Nc2ccc(S(=O)(=O)N(Cc3ccccc3)c3ccccc3)cc2)cc1,?,?
O=C(Nc1ccccc1Br)c1cc(S(=O)(=O)NC2CCCCC2)ccc1F,-6%,-13%
CCSc1nc2c([nH]c3ccccc32)c(=O)n1CC,-25%,-27%
CCCn1c(CN(Cc2ccccc2)Cc2ccccc2)nc2c1c(=O)n(C)c(=O)n2C,-12%,-28%
COC(=O)c1ccccc1NC(=O)C1CCCN(c2ncnc3onc(C)c23)C1 (stereo unspecified),-7%,-8%
CCN1CCN(c2ccc(N3CCN(S(=O)(=O)c4ccc(C)c([N+](=O)[O-])c4)CC3)nn2)CC1,?,-29%
CC1Cc2ccccc2N1C(=O)c1ccc(N2CCCC2)c([N+](=O)[O-])c1 (stereo unspecified),-24%,-9%
COc1ccc(CNC(=O)C2CCCN(S(=O)(=O)N3CCC(C)CC3)C2)c(OC)c1 (stereo unspecified),-20%,-2%
O=C(NCCN1CCN(c2ccccc2)CC1)Nc1cccc(Br)c1,-18%,-22%
COc1ccc(NC(=O)C2=CC(c3ccc(C)cc3)=NS(=O)(=O)N2C)cc1,-4%,12%
Cc1ccc2nc(NC(=O)CSc3nnc(C)c(=O)n3N)sc2c1,-6%,-13%
CC(C)c1nc2ccc(C(=O)NCc3ccccc3Br)cc2o1,-3%[7.34 µM],-7%[7.34 µM]
O=C(CCCSCCCC(=O)NN=Cc1ccccc1)NN=Cc1ccccc1,-3%,i
Cc1nn(C)c(C)c1/C=C/C(=O)c1ccc(Cl)cc1Cl,?,?
O=C(N/N=C/c1ccccn1)c1cc(C2CC2)nc2ccccc12,-15%,-24%
O=C(NCC1c2ccccc2CCN1C(=O)CN1C(=O)c2ccccc2C1=O)C1CCCCC1 (stereo unspecified),-25%,.
S=C(Nc1cccc(Cl)c1Cl)N1CCC2(CC1)OCCO2,-6%,-15%
COc1ccc(Nc2ncccc2C(=O)Nc2ccccc2)cc1,-19%,-4%
CC1CCCCN1C(=O)N[C@@H](Cc1ccccc1)C(=O)O (stereo partly specified),-4%,-14%
O=C(NCc1ccccc1)c1cc2sccc2n1Cc1ccc(Cl)cc1,-3%,-2%

# The closing 5 compounds of the section before lead into the next:
SMILES,VACV Venus inh,Vaccinia mCherry
O=C(NCC1c2ccccc2CCN1C(=O)CN1C(=O)c2ccccc2C1=O)C1CCCCC1 (stereo unspecified),-25%,.
S=C(Nc1cccc(Cl)c1Cl)N1CCC2(CC1)OCCO2,-6%,-15%
COc1ccc(Nc2ncccc2C(=O)Nc2ccccc2)cc1,-19%,-4%
CC1CCCCN1C(=O)N[C@@H](Cc1ccccc1)C(=O)O (stereo partly specified),-4%,-14%
O=C(NCc1ccccc1)c1cc2sccc2n1Cc1ccc(Cl)cc1,-3%,-2%
Cc1noc(C)c1COC(=O)c1ccccc1Oc1ccccc1,-9%,-6%
Cc1c(C(=O)NCc2ccccc2C(F)(F)F)sc(=O)n1Cc1ccccc1C#N,-1%,i
CCc1ccc(NC(=O)c2sc3nc(-c4ccccc4)cn3c2C)cc1,-19%,-3%
O=C(CCS(=O)(=O)c1ccccc1)Nc1ccccc1-c1nc2ccccc2s1,6%,i
COc1ccccc1NC(=O)CSc1nc2ccccc2c(=O)n1CCC(=O)NC1CCCCC1,0%,-6%
O=c1oc(CCCO)cc2ccc(C#Cc3cccnc3)cc12,-12%,i
COc1cccc(/C=N/Nc2nccnc2Cl)c1O,?,1.3µM*
CC(C)c1ccc(NC(=O)CSC2=Nc3ccccc3C3=NC(CCC(=O)NCc4cccs4)C(=O)N23)cc1 (stereo unspecified),-20%,-21%
Cc1ccc(C)c(OC(C)C(=O)Nc2nccs2)c1 (stereo unspecified),1%,-9%
COC(=O)Cc1ccc(NC(=S)Nc2ccccn2)cc1,-13%,-1%
O=C(Nc1nc(-c2ccc(Cl)cc2Cl)cs1)c1ccc(OCC2CCCO2)cc1 (stereo unspecified),4%,i
COc1cccc(S(=O)(=O)Nc2ccc3c(c2)C(=O)N(C)C[C@H](OC)[C@H](C)CN(Cc2ccccc2F)[C@@H](C)CO3)c1,?,?
COC(=O)N/N=C/c1cn(Cc2c(Cl)cccc2Cl)c2ccccc12,-18%,-14%
CCOc1ccc(OCCC(=O)Nc2ccc(F)cc2C)cc1,-14%,-17%
CS(=O)(=O)n1nc(-c2ccco2)nc1NCc1ccccc1Cl,-25%,?

# Fetched by structure from the entries so far:
SMILES,VACV Venus inh,Vaccinia mCherry
Cc1c(C(=O)NCc2ccccc2C(F)(F)F)sc(=O)n1Cc1ccccc1C#N,-1%,i
O=c1oc(CCCO)cc2ccc(C#Cc3cccnc3)cc12,-12%,i
COc1ccccc1NC(=O)CSc1nc2ccccc2c(=O)n1CCC(=O)NC1CCCCC1,0%,-6%
CCOc1ccc(OCCC(=O)Nc2ccc(F)cc2C)cc1,-14%,-17%
COc1cccc(/C=N/Nc2nccnc2Cl)c1O,?,1.3µM*
COC(=O)N/N=C/c1cn(Cc2c(Cl)cccc2Cl)c2ccccc12,-18%,-14%
Cc1ccc(C)c(OC(C)C(=O)Nc2nccs2)c1 (stereo unspecified),1%,-9%

# (cont.)
SMILES,VACV Venus inh,Vaccinia mCherry
CCC(C)S(=O)(=O)c1oc(-c2ccc(F)cc2)nc1S(=O)(=O)c1ccc(F)cc1 (stereo unspecified),-27%,i
Cc1ccccc1C(=O)NC(=S)N(C)CCc1ccccn1,3%,3%
Cc1ccc(C)c(S(=O)(=O)c2cn(C)c3cc(F)c(F)cc3c2=O)c1,-19%,i
Cn1nc(C(C)(C)C)cc1N1C(=O)CCC1(C)C(=O)NCc1ccccc1 (stereo unspecified),-1%,2%
CN(Cc1ccc(Cl)cc1Cl)C(=O)CNC(=O)c1ccco1,-1%,-16%
Oc1c(Br)cc(Br)cc1/C=N/NC(=S)N[C@H]1CC2C=CC1C2 (stereo partly specified),-11%[7.34 µM],-14%[7.34 µM]
CCN1C(=O)C(=Cc2cccc(OC)c2Oc2ccc([N+](=O)[O-])cc2[N+](=O)[O-])SC1=S,-25%,?
CCOc1ccc(S(=O)(=O)NCCC(=O)NCC(c2ccc(OC)cc2)N2CCCCC2)cc1 (stereo unspecified),-22%,-3%
C/C(=N\NC(=O)c1cccc(Cl)c1)c1cccc(NC(=O)C(C)C)c1,-13%,i
CC(=O)Oc1ccc(C(=O)NCc2ccco2)cc1,-7%,i
Cc1ccc(C(=O)Nc2ccc(-c3nc4ccccc4o3)cc2)cc1Cl,-6%,-11%
Cc1nnc(SCC(=O)N2CC(=O)Nc3ccccc32)n1C,-15%,-13%[1.46 µM]
O=C(OCc1cccc(F)c1)c1ccc2c(c1)-c1ccccc1C2=O,-21%,-25%
N#C/C(=C\c1ccco1)C(=O)NCC1CCCO1 (stereo unspecified),4%,i
O=C(Nc1ccc(S(=O)(=O)Nc2nccs2)cc1)c1cc(-c2ccccc2Cl)nc2ccccc12,-7%,-15%[1.46 µM]
COC(=O)C1=C2c3[nH]c4ccccc4c3CCN2C(=O)CC1,-7%,-6%
COc1ccc(OC)c(Nc2nc(=O)c3cccnc3s2)c1,-14%,-21%
CCOC(=O)C(C)n1cnc2c(nnn2-c2ccc(C)cc2)c1=O (stereo unspecified),-2%,-11%
Cc1ccc(-c2nn(-c3ccccc3)cc2NC(=O)c2ccccc2)cc1,-7%,-20%
Cc1ccc(S(=O)(=O)N2CCN(C(=O)NCc3ccc(C(=O)O)cc3)CC2)cc1,-10%,i
C(=C\c1ccco1)/C=N/n1cnnc1,1%,-10%
CC(C)C[C@@H](C(=O)NCc1ccco1)N1C(=O)N2CCc3c([nH]c4ccccc34)[C@@]2(C)C1=O,-10%,-19%
CCOc1ccc(NC(=O)N(CCC(C)C)C2CCN(C(C)=O)CC2)cc1,-8%,-7%
COc1cc2oc(-c3ccc(O)cc3)cc(=O)c2c(O)c1OC,-20%,-5%
CC(C)(C)c1ccc(/C=C2\Oc3cc(OC(=O)N4CCOCC4)ccc3C2=O)cc1,-7%,-11%
O=C(CSc1nnc(-c2ccc(Br)cc2)n1C1CCCCC1)N1CCCC1,-21%,-18%
Nc1cc(=O)[nH]c(SCC(=O)Nc2ccc3c(c2)CCC3)n1,0%,1%
Cc1ccc(/C=C/c2onc(C)c2S(=O)(=O)N2CCC(C(=O)Nc3cc(F)ccc3F)CC2)cc1,-21%,-12%
COC(=O)c1ccc(C(=O)OC)c(NC(=O)CCC(=O)O)c1,-7%,-18%
CCOc1cc2c3c(c1)C1(Nc4ccccc4S1)C(=O)N3C(C)(C)CC2C (stereo unspecified),?,?
COc1ccc(C(=O)CSc2nc(SC)ns2)cc1OC,?,.
CCOC(=O)CCCCCC(=O)Nc1ccc2c(c1)C(=O)N([C@@H](C)CO)C[C@@H](C)[C@H](CN(C)C(=O)Nc1ccccc1)OCCCC[C@H](C)O2,-5%,3%
Cc1ccc(N2C(=O)C3Sc4[nH]c(=O)sc4C(c4ccccc4)C3C2=O)cc1 (stereo unspecified),-7%,.
COC(=O)C[C@H]1c2ccccc2S(=O)(=O)N1c1cccc(OC)c1,-5%&-11%,-16%
COc1ccc(NC(=O)C#Cc2ccccc2)cc1,-29%,?
Cc1ccc(Nc2cc(C)nc3nncn23)c(C)c1,-11%,-6%
COc1ccc(C(=O)/C=C/Nc2ccccn2)c(OC)c1,-7%,-22%
COCCN1C(=O)CSCC1(C)C(=O)NCc1ccccc1 (stereo unspecified),-8%,i
CCOc1ccc(NC(=O)C2=C(C)C(=O)OC23CCC(C)CC3)cc1 (stereo unspecified),-8%&-16%,-3%&-27%
c1ccc2c(c1)ncn2Cc1nnc2sc(-c3ccc4c(c3)OCO4)nn12,-17%,-1%
